CtBP-E1A blk = inhibitors of CtBP/E1A interaction; activity change, % (test concentration not listed); 340,000 tested, 0.49% active; AID 651724; AlphaScreen GST-E1A/His-CtBP binding, 1536-well; active compounds read low; control for the full effect not named in the record; in the data active means activity change below about -65%; inconclusive means about -30% to -65%; inactive means above about -30%; note: % is set by controls: 0 for no effect and ±100 for the full control effect
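Homogeneous bead-based format: GST-tagged E1A captured on glutathione donor beads, His-tagged CtBP on nickel acceptor beads; compounds precede bead addition by 2 h at 37 °C.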
TRPML1 blocker = blocks the human TRPML1 channel; Q9GZU1; TRPML1-inducible cells, Ca2+ dye fluorescence, FDSS; active compounds read low; inhibition of EC80 agonist-evoked calcium signal; activity change, negative = inhibition, % (concentration not given with the values); 390,000 tested, 0.02% active; AID 624415; in the data active means activity change below about -50%; inconclusive means about -30% to -50%; inactive means above about -30%;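 note: stimulus is agonist 54-4 at its EC80 concentration; % is set by controls: 0 for no effect and ±100 for the full control effect; the text of the record puts the active cut at -80%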
Target sequence (Q9GZU1 whole entry, looked up): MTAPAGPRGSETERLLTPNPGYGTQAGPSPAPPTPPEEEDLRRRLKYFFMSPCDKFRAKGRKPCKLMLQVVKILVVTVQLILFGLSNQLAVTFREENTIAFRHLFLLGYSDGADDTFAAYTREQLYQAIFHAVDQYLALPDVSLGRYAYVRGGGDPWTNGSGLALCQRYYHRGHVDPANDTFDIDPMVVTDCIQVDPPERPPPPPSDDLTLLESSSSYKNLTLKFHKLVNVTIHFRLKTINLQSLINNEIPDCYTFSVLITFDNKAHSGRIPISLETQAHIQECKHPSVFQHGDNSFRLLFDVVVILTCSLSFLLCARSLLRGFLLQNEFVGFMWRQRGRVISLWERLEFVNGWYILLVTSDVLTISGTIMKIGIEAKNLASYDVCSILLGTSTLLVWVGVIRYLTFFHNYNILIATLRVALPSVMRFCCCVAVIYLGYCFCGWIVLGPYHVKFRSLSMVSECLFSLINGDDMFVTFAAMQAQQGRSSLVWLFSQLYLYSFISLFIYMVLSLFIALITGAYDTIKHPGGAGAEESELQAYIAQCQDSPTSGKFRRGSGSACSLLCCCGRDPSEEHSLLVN
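Tet-induced TRPML1-DL cells loaded with Ca8 no-wash calcium dye were read kinetically on FDSS. Compound addition was followed by EC80 agonist 54-4 (4 uM final); inhibition was read over 110 s.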
Six1-Eya2 inh = inhibitors of human Six1/Eya2 interaction; AlphaScreen GST-Six1/His-Eya2 binding, biochemical; active compounds read low; control for the full effect not named in the record; 360,000 tested, 0.56% active; activity change, % (no concentration beside the values); AID 651725; in the data active = activity change below about -65%; inconclusive = about -30% to -65%; inactive = above about -30%; note: % is set by controls: 0 for no effect and ±100 for the full control effect
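GST-Six1 + His-Eya2 (5X stock: 250/500 nM); Tris pH 8.0, 300 mM NaCl, 0.05% BSA, 0.02% Tween 20; GSH donor/Ni acceptor beads; 1 h 37 °C dark; AlphaScreen readout.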
D2 ag = human D2 receptor agonism in beta-arrestin assay; P14416; DiscoveRx PathHunter D2 beta-arrestin, luminescence, 90 min; 100% = 57 uM dopamine signal; activation, % (test concentration not listed); 360,000 tested, 0.084% active; AID 624465; in the data active = activation above about 40%; inconclusive = about 15% to 40%; inactive = below about 15%; note: compound concentration not given in the record; the text of the record calls up to 30% inactive
Target sequence (P14416 whole entry, looked up): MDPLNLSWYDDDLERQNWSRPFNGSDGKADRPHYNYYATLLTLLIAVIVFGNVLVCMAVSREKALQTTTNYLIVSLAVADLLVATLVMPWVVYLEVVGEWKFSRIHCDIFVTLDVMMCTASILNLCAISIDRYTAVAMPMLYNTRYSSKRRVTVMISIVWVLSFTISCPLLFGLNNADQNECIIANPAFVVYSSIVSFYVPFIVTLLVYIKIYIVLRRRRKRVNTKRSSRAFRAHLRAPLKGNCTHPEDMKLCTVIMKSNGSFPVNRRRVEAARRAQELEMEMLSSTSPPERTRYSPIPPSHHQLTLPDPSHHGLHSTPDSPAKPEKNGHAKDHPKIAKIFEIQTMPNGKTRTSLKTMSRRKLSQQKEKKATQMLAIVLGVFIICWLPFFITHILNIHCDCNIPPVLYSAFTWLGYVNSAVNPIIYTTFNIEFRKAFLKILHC
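DiscoveRx PathHunter D2 beta-arrestin cells (2,100/well) attached overnight, then compound-stimulated 90 min at 37 C in HBSS/10 mM HEPES/0.1% Tween-20 buffer; beta-galactosidase complementation read by luminescence after 1 h at ambient temperature. Dopamine 57 uM final (EC100) as control.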
TRPML1 agonist = activates the human TRPML1 channel; Q9GZU1; TRPML1-expressing cells, Ca2+ dye fluorescence, FDSS; host cell line not named in the record; reference of the full effect not given here; activation, % (test concentration not listed); 410,000 tested, 0.12% active; AID 624414; in the data active = activation above about 50%; inconclusive = about 30% to 50%; inactive = below about 30%; note: 0% is about no effect; the text of the record puts the active cut at 80%
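Tetracycline-induced TRPML1-DL cells are seeded and incubated overnight before loading with a no-wash Ca2+ dye and quencher. Agonist activity is taken from the 110 s fluorescence read following compound pin-transfer on an FDSS, before EC80 54-4 challenge.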
PINK1 expr mod = modulators of PINK1 expression | PINK1 immunofluorescence, high-content cytometry, 24 h | Potency, µM (top dose mostly 76.6 µM), inactives show top-dose activation (PINK1 increase), actives largely listed as activators | 410,000 tested, 0.2% active | AID 624263; active = well fitted activation curve with a large enough effect; inconclusive = small, poorly fitted or top-dose-only effect; inactive = flat fitted curve, though single readings scatter; cell line not stated here;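 note: potency is the fitted concentration of half-maximal effect; % of control where 0% means no effect; nearly all actives have a fitted effect of over 65% in size; a mitochondrial uncoupler was the plate control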
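Compound titrations (5 concentrations, 24 h) on a stable cell line; DMSO and CCCP controls. Endpoint: fixed-cell PINK1 immunofluorescence with mitochondrial, cell and nuclear markers, scanned by microplate cytometer.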
* marks the source's active call; other numbers are inactive results; ? = inconclusive; . = not tested or not shown; & = joins results of further samples; [ ] = another dose, or the depositor's remark.

Values run as follows: CtBP-E1A blk	TRPML1 blocker	Six1-Eya2 inh	D2 ag	TRPML1 agonist	PINK1 expr mod
CC(OC(=O)c1nc(Cl)ccc1Cl)C(=O)NC1CCCCC1C (stereo unspecified)
→ 8	-8	2	15	-0.2	-1.1%
CCOC(=O)c1cn(-c2c(C)n(C)n(-c3ccccc3)c2=O)c2c(F)c(F)c(F)cc2c1=O
→ 3	34	17	2.3	0.6	0.1%
Cc1noc(/C=C/c2ccco2)c1S(=O)(=O)N1CCC(C(=O)Nc2ccc(Cl)cn2)CC1
→ -5	15	1	-1.1	0.7	0.8%
COc1ccc2nc(C)cc(NCc3ccc(F)cc3)c2c1
→ -8	-13	-12	-4.6	9.4	9.6%
Fc1ccccc1CNc1nc(NCC2CC2)nc2ccsc12
→ -3	.	-13	-2.6	-0.6	?
CCCC1=C(C(=O)OCC)C(c2cc(Cl)cc(OC)c2OCC(=O)OCC)NC(=O)N1 (stereo unspecified)
→ 0	-1	-10	-0.6	-0.5	3.2%
O=C1OC(=O)c2cc([N+](=O)[O-])ccc21
→ 3	14	-1	-7.2	-0.6	1.2%
Cc1ccc(NC(=O)C2c3ccccc3Oc3ccccc32)nc1
→ 6	-8	-1	2.9	-0.2	2.3%
CCOc1ccc(NC(=O)CSc2nc3c(oc4ccccc43)c(=O)n2-c2ccccc2C)cc1
→ .	-12	.	.	2.2	-0.7%
O=C(NCc1ccccn1)c1ccc([N+](=O)[O-])cc1
→ -3	14	-1	1.8	0.0	1.5%
CCCS(=O)(=O)N1CCC(C(=O)NCCN2CCC(Cc3ccccc3)CC2)CC1
→ 5	9	1	1.3	-1.1	1.0%
CCOc1ccccc1CN1CCNC(=O)C1CC(=O)NCc1nccn1CC (stereo unspecified)
→ -1	-10	-15	1.9	-0.3	1.4%
CCOc1ccccc1NC(=O)C(NCCN(C)C)c1ccccc1 (stereo unspecified)
→ 8	1	1	0.6	-0.2	0.5%
CCn1nc(C(=O)NCC2COc3ccccc3O2)c2ccccc2c1=O (stereo unspecified)
→ -28	-6	0	-0.7	-0.4	1.6%
COc1cccc(CNC(=O)CS(=O)(=O)Cc2nc(-c3ccc(C)cc3)oc2C)c1OC
→ -26	1	-6	-8.1	-0.3	0.1%

Other records.
Values run as follows: CtBP-E1A blk	TRPML1 blocker	Six1-Eya2 inh	D2 ag	TRPML1 agonist	PINK1 expr mod
O=S1(=O)CCO[C@H]2Cc3ccccc3[C@H]2N1Cc1ccc(Cl)cc1
→ 2	-19	3	-4.7	0.0&0.3	1.3%
Nc1nonc1C(=Nc1ccc(Br)cc1)NO
→ 9	-10	1	10	-0.9	1.9%
COc1ccc(/C=C/C(=O)NC(=S)Nc2ccc(S(N)(=O)=O)cc2)cc1
→ -11	-10	6	-3.0	1.3	1.7%
CCN(CC)C(=O)c1sc(NC(=O)C2c3ccccc3Oc3ccccc32)c(C(=O)OC(C)C)c1C
→ .	-9	.	.	0.0	-1.4%
Cc1ccccc1NC(=O)Cc1nc(COC(=O)CCNS(=O)(=O)c2ccccc2)cs1
→ -6	-22	7	-3.9	1.8	1.1%
O=C(NCc1ccc(F)cc1)c1cc2ccccc2o1
→ 3	11	-2	1.2	-0.6	-1.1%
CCC(=O)N1CCC1(C)C(=O)Nc1ccc(F)cc1 (stereo unspecified)
→ -4	.	7	-0.9	-0.3	1.7%
CCN1CCc2c(sc(NC(=O)c3ccc(S(=O)(=O)N4CCOCC4)cc3)c2C(=O)OC)C1
→ 0	-3	2	-8.1	0.1	-1.2%
CN(Cc1ccccc1)C(=O)[C@@H]1CCCN1
→ -3	.	7	.	0.2	-1.0%
O=C(CN1CCN(Cc2ccccc2)C1=O)NCc1ccc(Cl)cc1
→ 6	17	-5	-1.3	-0.3	2.5%
Cc1c(Cl)cccc1NC(=S)N(CCCN1CCOCC1)Cc1cccs1
→ 3	-4	-2	-0.4	0.4	-0.7%
O=C(c1ccccc1)N(Cc1ccc2c(c1)OCO2)Cc1nc2ccccc2c(=O)[nH]1
→ 3	37	-4	-2.0	3.7	-1.4%
COCC(=O)N(Cc1cc2ccc(C)cc2[nH]c1=O)c1cccc(C)c1
→ 5	-8	-11	-1.9	0.2	-0.3%
CCn1nnnc1SCC(=O)NNC(=O)C1CCCCC1
→ -10	10	3	0.4	1.1	-2.1%
CCCCN(C(=O)CNC(=O)c1ccco1)C(C(=O)NC1CCCC1)c1ccc(OC)cc1 (stereo unspecified)
→ -5	4	5	-0.6	-0.9	-0.8%

The list goes on:
Values run as follows: CtBP-E1A blk	TRPML1 blocker	Six1-Eya2 inh	D2 ag	TRPML1 agonist	PINK1 expr mod
COc1ccc(C(=O)NC(=S)Nc2ccc([N+](=O)[O-])cc2C)cc1OC
→ 1	12	-4	-3.2	1.3	28%[38.3 µM]
CS(=O)(=O)N(Cc1cc2ccccc2[nH]c1=O)C1CCCCC1
→ -10	-2	4	-0.2	3.7	0.3%
COc1ccccc1NS(=O)(=O)c1ccc(NC(=O)c2ccccn2)cc1
→ -28	-5	-4	0.2	-0.1	1.4%
Cc1ccc(-c2csc(NC(=O)c3cc([N+](=O)[O-])ccc3N3CCOCC3)n2)cc1
→ 0	6	-8	-3.2	-0.3	3.3%
O=C1Cc2ccccc2C(c2ccc(Br)cc2)N1 (stereo unspecified)
→ 1	5	-2	3.1	3.9	-1.9%[38.3 µM]
COC(=O)c1ccc(Cn2nc(-c3ccc(C)cc3)ccc2=O)cc1
→ 2	5	2	-0.2	-0.9	1.6%&1.6%
CCOc1ncccc1C(=O)OCC(=O)c1cc(OC)c(OC)c(OC)c1
→ 2	50	12	1.2	0.0	0.6%
CC(C)Cc1ccc(C(C)C(=N)N)cc1 (stereo unspecified)
→ 7	-2	9	-10	0.2	0.8%
CC(C)(C)C(=O)Nc1nnc(CCc2ccccc2)s1
→ 14	5	4	-1.1	0.9	0.7%
Cc1nc2ccn(Cc3cccs3)c(=O)c2cc1C(=O)N1CCN(c2ccc(F)cc2)CC1
→ .	-7	.	.	1.1	-0.2%
CNC(=S)N/N=C/c1cc(C)ccc1C
→ .	4	-1	-1.3	-0.3	-1.4%
O=C(CCN1C(=O)[C@@H]2Cc3ccccc3CN2C1=O)NCCc1ccccc1
→ .	-11	3	0.2	0.6	1.4%
O=C(Nc1cccc2ncccc12)C(Cl)(Cl)Cl
→ -2	-1	-1	0.4	0.4	-0.7%[38.3 µM]
C[C@H](CO)N1C[C@H](C)[C@@H](CN(C)Cc2ccc(C(F)(F)F)cc2)OCc2cnnn2CCCC1=O
→ -4	-5	3	-1.3	0.6	0.2%
Cc1cc(C)cc(NC(=O)c2cccc(NC(=O)c3ccco3)c2)c1
→ .	5	-2	2.7	0.8	3.8%

Pulled one by one from above, 2 records:
Values run as follows: CtBP-E1A blk	TRPML1 blocker	Six1-Eya2 inh	D2 ag	TRPML1 agonist	PINK1 expr mod
CC(C)(C)C(=O)Nc1nnc(CCc2ccccc2)s1
→ 14	5	4	-1.1	0.9	0.7%
COC(=O)c1ccc(Cn2nc(-c3ccc(C)cc3)ccc2=O)cc1
→ 2	5	2	-0.2	-0.9	1.6%&1.6%

(more compounds)
Values run as follows: CtBP-E1A blk	TRPML1 blocker	Six1-Eya2 inh	D2 ag	TRPML1 agonist	PINK1 expr mod
Cc1nn(-c2ccc(N3CCCC3)nn2)c(C)c1CCC(=O)N1CCN(c2ccc(F)cc2)CC1
→ .	-11	.	.	0.2	2.3%
CC1(C(=O)NS(=O)(=O)C2CC2)CCCN(C(=O)c2cccc(C(F)(F)F)c2)C1 (stereo unspecified)
→ 13	.	0	0.2	-0.2	-0.1%
COC(=O)[C@@](C)(O)C1(C(=O)SC(C)(C)C)CC1
→ 6	53	3	-1.3	1.3	0.4%
N#Cc1cccc(CS(=O)(=O)c2ccc(Cl)cc2)c1
→ 2	-19	6	6.0	1.4	-1.9%
O=C1C2C(c3ccccc3)=NN(c3ccccc3)C2C(=O)N1c1ccccc1 (stereo unspecified)
→ 45	-2	54	-2.1	0.3	-2.8%
O=C1CCCN1c1ncc(S(=O)(=O)c2ccc([N+](=O)[O-])cc2)s1
→ -5	3	1	?	-0.7	-1.2%
CCc1ccccc1NC(=O)CCS(=O)(=O)c1ccc(C)cc1
→ 1	.	-6	-4.3	.	2.1%
CCOc1cc(CNCCO)ccc1OCC(=O)NC(C)(C)C
→ .	10	10	1.6	-0.1	1.0%
COc1cc(NC(=O)CSc2nnc3c(C)cc4cc(C)cc(C)c4n23)c(C(=O)O)cc1OC
→ 6	-5	13	-4.8	-0.4	-0.9%
COCCn1c(SCC(=O)N2CCCC2=O)nnc1-c1ccncc1
→ 0	-13	4	-3.4	0.4	0.0%
COc1ccc(-c2cc(C(=O)N/N=C/c3cccnc3)c3ccccc3n2)c(OC)c1
→ -9	-14	-22	-13	-0.6	0.7%
Cc1cc(OCc2nc(-c3cccs3)no2)cc(C)c1Cl
→ 40	41	29	-5.7	-0.1	25%
O=C(CNC(=O)OCc1ccccc1)NCC(=O)N1CCCC1C(=O)OCc1ccccc1 (stereo unspecified)
→ -2	22	0	-4.7	1.2	4.5%
COc1ccc(N(CC(=O)NCc2ccco2)S(C)(=O)=O)cc1
→ 10	-1	-4	-1.1	-0.5	.
Cc1nn(-c2ccccc2)c2c1cc1c(=O)[nH]c(=O)nc-1n2-c1cccc(Cl)c1
→ .	-3	.	.	0.1	1.0%

(cont.)
Values run as follows: CtBP-E1A blk	TRPML1 blocker	Six1-Eya2 inh	D2 ag	TRPML1 agonist	PINK1 expr mod
Cc1nc(Cc2nnc(SCC(=O)N3CCN(c4ccc(O)cc4)CC3)o2)cs1
→ 9	-1	-6	7.8	0.0	-1.6%
O=S(=O)(NCCc1ccncc1)c1ccc(Br)cc1
→ 12	-1	8	-4.8	0.3	-2.0%
CC1CN(C(C)C(=O)NNC(=O)c2ccc(F)cc2)CC(C)O1 (stereo unspecified)
→ 6	-4	-5	2.9	0.2	2.0%
O=C(Nc1nnc(S(=O)(=O)N2CCCCC2)s1)c1ccccc1Br
→ 1	0&2	0	-0.2	0.2&-0.6	2.5%&-1.7%
CC1CCC(NC(=O)CCN2C(=O)C3C4C=CC(C4)C3C2=O)CC1 (stereo unspecified)
→ -6	0	5	-1.0	-0.3	0.9%
O=C(Nc1ccc(Cl)cn1)c1cc(S(=O)(=O)N2CCCCC2)ccc1Cl
→ 1	-10	0	-1.8	-1.3	4.8%
COc1ccc(C(C)=O)cc1Cn1c(C)c(C(=O)NCc2cccc(C)c2)sc1=O
→ -21	.	-7	-3.1	-1.1	-0.4%
COc1ccc(-c2nn(C)c3sc(C(=O)NCc4ccco4)cc23)cc1OC
→ -20	5	-24	-1.6	-1.2	-1.9%
Cc1ccc(OCC(=O)N2CCN(C3=NS(=O)(=O)c4ccccc43)CC2)cc1
→ -6	-6	-1	0.6	0.2	3.6%[38.3 µM]
O=c1c2c([nH]c3ccccc13)CCC2
→ .	26	3	7.6	-0.5	-0.8%
Cc1cccc(/C=C(\C(=O)O)c2ccc(S(=O)(=O)N3CCCC3)s2)c1
→ 0	36	0	-0.2	1.0	-5.5%
CN(C(=O)c1cnccn1)c1nnc(-c2cnccn2)s1
→ 0	-15	-3	1.4	-0.6	-0.3%
O=C(c1ccccc1)c1cc(-c2ccccc2)on1
→ 44	-17	39	-1.8	0.5	1.3%

Screening data as filed in PubChem.

Rows were taken by chance; any-hit rate near 1%.
